LT uptake inh = inhibitors of anthrax lethal toxin internalization | Cells, anthrax lethal toxin internalization, FRET ratio (460/530) | AID 912 | actives 0.67% (n = 70,000) | Potency, µM (titrated, usually from 40 µM), for the others: top-dose activity change, negative = inhibition, actives largely listed as inhibitors; active = well fitted falling ratio curve with the 530 nm signal flat; inconclusive = other ratio curves, or a change in one channel alone; inactive = flat curves in the ratio and both channels; the % refers to the ratio; further: on the % scale 0 is the no-effect control and ±100 the full control effect; nearly all actives have a fitted effect of over 50% in size; tested in ME-180 cells; beta-lactamase reporter
Prx2 Sm inh = Schistosoma mansoni Prx2 inhibition; Potency, µM; actives 0.07% (n = 65,000); S. mansoni Prx2 activity coupled to TGR/GSH (TGR is thioredoxin glutathione reductase), NADPH fluorescence loss, qHTS; some inactives read as strong as hits; active means full or partial inhibition curve with a strong effect at the top dose; inconclusive means weaker partial or single-point curve; inactive means no accepted curve; further: series up to 57 µM; many of its hits are not listed in these tables
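Purified S. mansoni TGR and Prx2 in pH 7.4 phosphate buffer with EDTA and Tween-20 were preincubated with compounds for 15 min. Further NADPH/GSH was added, then a 2.5 mM H2O2 aliquot initiated turnover, followed kinetically by NADPH fluorescence.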
* = called active by the depositor; ? = inconclusive; nt = no result given; & = joins results of further samples; [ ] = remark or other dose. Potency means the concentration at half of the fitted maximal effect.

SMILES	LT uptake inh	Prx2 Sm inh
CC(C)CC(c1nnnn1C1CCCC1)N1CCN(C(=O)c2ccco2)CC1 (configuration not stated)	11.9%	>57
COc1ccc(Oc2nc(C)nc3c2oc2ccccc23)cc1	13.3%	>57
CN1C(=O)CSc2ccc(NC(=O)N3CCC(N4CCCCC4)CC3)cc21	-5.0%	>57
C/C(=N\O)C(=O)OC1CC(C)CCC1C(C)C (configuration not stated)	?	nt
CCOC(=O)C1CCN(C(=O)COc2cc(C)c(Br)c(C)c2)CC1	12.1%	nt
Cc1ccn(CCSCC(=O)O)n1	-3.0%	>57
Cc1cc(N2CCCN(C)CC2)nc2cc(Cl)ccc12	10µM*	nt
Cc1cccc(C)c1NC(=O)CSc1nnc(-c2ccoc2C)n1CCc1ccccc1	-29.3%	>57
COc1ccc(-c2cn3cccnc3n2)cc1NC(=O)C1CCCC1	0.5%	>57
CCOC(=O)C1=C(C)NC2=C(C(=O)c3ccccc32)C1c1cccnc1 (configuration not stated)	9.2%	>57
COc1ccccc1OCC(=O)Nc1oc(-c2ccccc2)c(-c2ccccc2)c1C#N	-24.3%	>57
COc1ccc(O[C@H]2C=C[C@@H](c3ccccc3)O[C@H]2COC(=O)CC/C(C)=N/O[C@@H]2O[C@H](COC(C)=O)[C@H](OC(C)=O)[C@H](OC(C)=O)[C@H]2OC(C)=O)cc1	-9.6%[1.6 µM]	nt
Cc1ccc2cc(CN(Cc3ccc4c(c3)OCO4)Cc3nnnn3Cc3ccco3)c(=O)[nH]c2c1C	?	>57
O=C(NCC(=O)N(Cc1ccc(F)cc1)C(C(=O)NC1CCCC1)c1ccco1)c1ccco1 (configuration not stated)	29.1%	>57
NC(=O)N[C@H]1NC(=O)NC1=O	-8.6%[3.58 µM]	>57
O=C(Nc1cccc(C(=O)N2CCCC2)c1)c1ccccc1	?	>57
CC1=CC(C)(C)N2C(=O)C3(C(C#N)=C(N)Oc4cc(O)ccc43)c3cccc1c32 (configuration not stated)	-6.9%	>57
COC(=O)CSc1cc(C(=O)c2nccn2C)c2ccccc2n1	12.0%	>57
COCCn1c(SCC#N)nnc1-c1ccccc1	-2.5%	>57
O=C(O)c1ccc(NS(=O)(=O)c2ccc(Cl)c(Cl)c2)cc1O	-6.4%	>57
CCOC(=O)c1sc(NC(=O)CSc2nncs2)c(C(=O)OCC)c1C	0.2%	>57
Cc1nn(-c2ccccc2)c2c1P(=O)(O)/C(=C1\N(C)c3ccccc3C1(C)C)C=N2	?	nt
CCOc1cc(-c2nc(-c3ccccc3OC)no2)cc(OCC)c1OCC	2.2%	>57
CCN(CC)CCNC(=O)c1nn(-c2ccc(C)cc2)c(=O)c2c1c1ccccc1n2C	3.0%	>57
CN(C)CCCN1c2ccccc2CCc2ccc(Cl)cc21	?	>57&>57&>57
COc1ccc(C(CC(=O)N2CCC3(CC2)OCCO3)NS(=O)(=O)c2ccc(F)cc2)cc1 (configuration not stated)	8.0%	>57
COC(=O)COc1ccc(S(=O)(=O)NCc2ccco2)cc1Cl	?	>57
Cc1ccc2c(C)nc(NC3=NCN(CCc4ccccc4)CN3)nc2c1	23.9%	>57
COC(=O)C1CCCN1S(=O)(=O)c1ccc2ccccc2c1 (configuration not stated)	-8.1%	>57
CCOC(=O)c1[nH]c(C)c(C(=O)OCCN2C(=O)c3ccccc3C2=O)c1C	2.2%	>57
CC(=O)OC[C@@H]1O[C@H](C/C=N\O[C@@H](C)CN2CCCc3nc(C)c(C)cc32)C=C[C@@H]1OC(C)=O	5.5%[8 µM]	nt
CN/C=C1\C(=O)C(C)(C)Oc2ccc3ccc(=O)oc3c21	0.5%	>57
COCC(=O)N1CCC2(CC1)CN(c1ccncc1)C2	20.7%	>57
N#Cc1ccc(-c2nnnn2-c2ccc3c(c2)OCO3)cc1	4.2%	>57
CC(=O)C1=C(O)C(=O)N(Cc2ccco2)C1c1ccccc1 (configuration not stated)	-22.0%	>57
Cc1nnc(SCC(=O)NCCOc2ccc(Cl)cc2)n1-c1ccccc1	6.1%	>57
COCCNc1cc(-c2ccccc2C(F)(F)F)ncn1	2.0%	>57
CCCn1c(=O)c2[nH]c(C3CCCC3)nc2n(CCC)c1=O	18.6%&2.0%	>57&>57
Cc1nn(-c2ccccn2)c2c1C(c1ccsc1)C1=C(CCCC1=O)N2 (configuration not stated)	16.1%	>57
CCOc1ccc(NC(=O)N(C2CCCCC2)C2CCN(C(C)=O)CC2)cc1	-10.7%	>57
Cc1cc(C)nc(SCc2ccc(C(=O)O)o2)n1	8.2%	>57
C/C(Cl)=C/CN1C(=O)C2C3C=CC(C3)C2C1=O (configuration not stated)	nt	>57
COCCCNC(=O)c1cccc(C(=O)NCCCOC)c1	-6.5%	nt
COc1ccc(C(c2nnnn2CC2CCCO2)N2CCN(c3cccc(C)c3C)CC2)cc1 (configuration not stated)	-12.6%	nt
Cc1onc(-c2ccccc2)c1C(=O)Nc1ccc2c(c1)OCO2	-12.6%	nt
COc1ccc(C2C(C(C)=O)=C(O)C(=O)N2CCN(C)C)cc1OC (configuration not stated)	-17.2%	nt
CCn1c(=O)cc(OCC(=O)NCCCN2CC(C)CC(C)C2)c2ccccc21 (configuration not stated)	6.5%	>57
CC(C)OC(=O)C(C)(C)Oc1ccc(C(=O)c2ccc(Cl)cc2)cc1	?	>57&>57
O=C1C(Cl)=C(NCC2CCCO2)C(=O)N1c1ccccc1 (configuration not stated)	-20.1%	>57
O=C1CCCCCC1C1(O)C(=O)Nc2ccc(Br)cc21 (configuration not stated)	-1.7%	>57
Cc1ccc(CNC(=O)c2cn(C3CCCCC3)c(=O)c3c2c2ccccc2n3C)o1	-28.6%	>57
O=C(CSc1nccc(=O)[nH]1)N1c2ccccc2CCc2ccccc21	-16.2%	>57
c1coc(CNc2ncnc3nc[nH]c23)c1	11.1%	>57&>57&>57
COc1ccc(OC)c(NC(=O)c2ccc(NS(=O)(=O)c3c(C)noc3C)cc2)c1	-14.4%	>57
CN(C)c1ncc2nc(-c3cc(F)cc(F)c3)c(=O)n(Cc3ccc(F)cc3)c2n1	?	>57
O=C(c1ccncc1)N1CCN(C(=O)c2cccs2)CC1	0.3%	>57
CCN1C(C)=C(C(=O)OC)C(c2ccccc2)N2C(=O)[C@@]3(C(=O)OC)O[C@@]12C1C(=O)N(C)C(=O)C13 (some centres not stated)	-9.6%[8 µM]	nt
COC(=O)c1ccc(C2C(C(C)=O)=C(C)Nc3ncnn32)cc1 (configuration not stated)	18.4%	>57
CCCn1c(=N)n(CC(=O)c2ccco2)c2ccccc21	-8.8%	>57
CCCSCCCNC(=O)Cn1cc2c(n1)CCC(C)C2 (configuration not stated)	-2.7%	>57

Fetched one by one from the list above, 4 records:
SMILES	LT uptake inh	Prx2 Sm inh
O=C(CSc1nccc(=O)[nH]1)N1c2ccccc2CCc2ccccc21	-16.2%	>57
COc1ccc(C(c2nnnn2CC2CCCO2)N2CCN(c3cccc(C)c3C)CC2)cc1 (configuration not stated)	-12.6%	nt
O=C1CCCCCC1C1(O)C(=O)Nc2ccc(Br)cc21 (configuration not stated)	-1.7%	>57
COc1ccc(OC)c(NC(=O)c2ccc(NS(=O)(=O)c3c(C)noc3C)cc2)c1	-14.4%	>57

Following part.
SMILES	LT uptake inh	Prx2 Sm inh
O=C(Nc1ccc(N2CCOCC2)cc1)C1(S(=O)(=O)c2ccccc2)CC1	16.5%	nt
O=C(Nc1cccc(F)c1)N1CC2(CCN(C(=O)c3cc(C(F)(F)F)cc(C(F)(F)F)c3)CC2)C1	1.9%	>11.4
O=C1CN(C(=O)c2ccc(Br)o2)C(c2ccc(F)cc2)c2cc(F)ccc2N1 (configuration not stated)	-13.3%	>57
O=C(Nc1ccc(Oc2ccc(Cl)cc2)cc1)c1ncn[nH]1	nt	>57
CC1CCCCN1CCNC(=O)CN1C(=O)COc2ccccc21 (configuration not stated)	-4.3%	>57
COc1cc(-c2c(C#N)c(N)nc(SCc3ccncc3)c2C#N)cc(OC)c1OC	?	>57
Cc1noc(C(=O)Nc2sc3c(c2C#N)CCC3)c1Cl	?	>57
O=C(Cn1c(=O)oc2cc(S(=O)(=O)N3CCCC3)ccc21)N1CCN(c2ccccn2)CC1	-3.2%	>57
CN(C)c1ncc2nc(-c3cc(F)cc(F)c3)c(=O)n(Cc3cccs3)c2n1	?	>57
N#CCCn1c(=O)c(-c2ccccc2)nc2cnc(Oc3ccccc3)nc21	?	>57
Cc1nc2n(n1)CC(O)CS2 (configuration not stated)	-2.6%	>57
O=C(Nc1ccccc1-c1nc2ccccc2o1)c1ccc2c(c1)OCCO2	-17.0%	>57
O=C(C1CCCO1)N1CCN(c2ncccn2)CC1 (configuration not stated)	5.6%	>57
COCCn1c(SCC(=O)Nc2ccc(S(=O)(=O)N3CCOCC3)cc2)nc2ccccc21	8.1%	>57
Cc1ccc(-n2nnnc2SCC(=O)NC(=O)Nc2ccc3c(c2)OCCO3)cc1	-28.4%	>57
O=c1c2cnn(-c3ccccc3)c2ncn1Cc1cccc(Cl)c1	?	nt
COCc1cc(=O)n2[nH]c(SC)nc2n1	-8.8%	>57
CCOC(=O)c1c(/N=C/N(C)C)sc(C(=O)OC)c1C	-6.6%	>57
CCOC(=O)c1ccc(NC(=O)CC2C(=O)N(c3cccc(OC)c3)C(=O)N2CCOC)cc1 (configuration not stated)	5.6%	>57
O=C1CN(C(=O)CN2CCCCC2)C(c2ccccc2)c2cc(Br)ccc2N1 (configuration not stated)	-18.3%	>57

A different layout for some results above:
Structure | LT uptake inh | Prx2 Sm inh
Cc1noc(C(=O)Nc2sc3c(c2C#N)CCC3)c1Cl | ? | >57
O=C(Cn1c(=O)oc2cc(S(=O)(=O)N3CCCC3)ccc21)N1CCN(c2ccccn2)CC1 | -3.2% | >57
CN(C)c1ncc2nc(-c3cc(F)cc(F)c3)c(=O)n(Cc3cccs3)c2n1 | ? | >57

The listing continues.
SMILES	LT uptake inh	Prx2 Sm inh
C=C(C)CSc1nncn1/N=C/c1ccc(OC)cc1	-11.1%	>57
Cc1cc(C)nc(SCC(=O)Nc2ccc(N3CCOCC3)cc2)n1	6.1%	>57
CCCC(=O)NCCc1nc2ccccc2n1C	1.9%	>57
Cc1nc2ccc(S(=O)(=O)NC(C(=O)N3CCCCCC3)C(C)C)cc2s1 (configuration not stated)	-9.7%	>57
COc1ccc(OC)c(NC(=O)C2CCCN(S(=O)(=O)c3cccc4cccnc34)C2)c1 (configuration not stated)	-10.8%	>57
COC(=O)c1cn(NC(=O)CC2CCCCC2)c(=O)c2ccccc12	-10.9%	>57
Cc1cc(C)n2nc(NCc3cccc(Br)c3)nc2n1	nt	>57
Fc1ccc(CNc2ccc(CNc3ncn[nH]3)cc2)cc1	?	>57
CC(C)Cc1cc(C(=O)Nc2cc(Cl)ccc2Cl)no1	-14.0%	>57
O=c1c2cc(Cl)ccc2oc2nc3n(c(=O)c12)CCCS3	2.9%	>57
CCOCCCn1c(=S)[nH]c2cc(C(=O)NCCN(CC)CC)ccc2c1=O	nt	>57
COc1cc(C)c(Cl)cc1S(=O)(=O)NCc1ccncc1	?	>57
CSc1nc(C)c(Oc2ccccc2)c(=O)n1C	-8.1%	>57
O=C1c2ccccc2S(=O)(=O)N1CCOc1ccccc1	4.0%	>57
CC1CCN(S(=O)(=O)c2cccc(C(=O)NCc3cccs3)c2)CC1	-13.7%	>57
Cc1cc(C)cc(NC(=O)N2CCC(NC(=O)c3ccc(F)cc3)CC2)c1	-13.2%	>57
O=C1Nc2ccc(I)cc2/C1=C/c1cc(Br)c(O)c(Br)c1	?	>57&>57
CC(C)(C)C(=O)C(Oc1cccc2nonc12)n1cncn1 (configuration not stated)	-2.9%	>57
COc1ccc(OCC(=O)N2CCN(C(=O)Cc3ccccc3)CC2)cc1	6.2%	>57
Cc1nc(SCc2nnc(-c3ccc(Cl)cc3)o2)c2c3c(sc2n1)CCC3	-4.1%	>57

Brought forward from above: 2 compounds, followed by the next part.
SMILES	LT uptake inh	Prx2 Sm inh
COc1ccc(OCC(=O)N2CCN(C(=O)Cc3ccccc3)CC2)cc1	6.2%	>57
Cc1nc(SCc2nnc(-c3ccc(Cl)cc3)o2)c2c3c(sc2n1)CCC3	-4.1%	>57
COC(=O)C1=C(C)N(C)C(=O)NC1c1ccccc1 (configuration not stated)	-18.8%	>57
CCn1c(CNC(=O)COc2c(C)cccc2C)nnc1SCC(=O)Nc1nccs1	-1.7%	>57
COc1cccc2c1OC1(C)CC2NC(=O)N1c1cccc(C(=O)Nc2ccc3c(c2)OCCO3)c1 (configuration not stated)	?	>57
CCCCNc1ncnc2c1cnn2-c1ccccc1	?	>57
CC(=O)NC(CCS(C)(=O)=O)C(=O)Nc1cc(C)on1 (configuration not stated)	2.7%	>57
CC(C)n1c(N2CCN(C(=O)c3cccs3)CC2)nc2ccccc21	-5.7%	>57
FC(F)(F)c1ccc(N2CCN(c3ncnc4c3nnn4Cc3ccccc3)CC2)nc1	5.2%	>57
Clc1ccc(NCc2nnc3n2CCCCC3)cc1	-4.7%	>57
O=C(NCc1nc(-c2ccccc2)no1)c1ccc(Br)o1	?	>57
O=[N+]([O-])O[C@H]1CO[C@H]2[C@H]1OC[C@@H]2O[N+](=O)[O-]	?	>57
Cc1ccc(-c2nnn(CC(=O)N(CC(=O)NC(C)C)c3cnc4ccccc4c3)n2)o1	10.9%	>57
Cc1ccccc1-n1c(N)cc(=O)[nH]c1=S	-4.2%	>57

Screens: PubChem BioAssay, National Center for Advancing Translational Sciences (NCATS)

Not all compounds are listed; count on the stated rates, not on these rows.
